Screens: PubChem BioAssay, National Center for Advancing Translational Sciences (NCATS)
GLA inh pH 4.5: qHTS Assay for Inhibitors of Human alpha-Galactosidase at pH 4.5 | Alpha-galactosidase A (Homo sapiens), P06280 | purified enzyme, 4-MU-alpha-Gal fluorescence, pH 4.5 | activity change, negative = inhibition, % at 105 µM | 230,000 tested, under 10 active; inconclusive = small, poorly fitted or top-dose-only inhibition, or a rising curve; inactive = flat fitted curve, though single readings scatter; no compound was filed as active;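 further: 0% = full activity with enzyme and -100% = basal without enzyme; dose as in the result columns while the protocol names 77 µM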
Target sequence (P06280 whole entry, looked up): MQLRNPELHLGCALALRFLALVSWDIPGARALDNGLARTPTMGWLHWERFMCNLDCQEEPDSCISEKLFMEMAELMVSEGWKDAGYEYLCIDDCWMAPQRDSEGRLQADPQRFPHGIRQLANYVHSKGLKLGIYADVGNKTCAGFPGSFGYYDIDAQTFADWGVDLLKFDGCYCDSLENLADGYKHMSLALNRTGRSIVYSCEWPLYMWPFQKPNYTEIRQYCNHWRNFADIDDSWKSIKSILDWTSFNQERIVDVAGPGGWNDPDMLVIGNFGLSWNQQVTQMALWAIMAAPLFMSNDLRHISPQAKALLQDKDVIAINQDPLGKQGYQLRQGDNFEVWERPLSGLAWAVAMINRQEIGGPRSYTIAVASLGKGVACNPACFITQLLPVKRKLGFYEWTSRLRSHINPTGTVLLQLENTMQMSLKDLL
Rango dissoc inh: qHTS Assay for Inhibitors of RanGTP induced Rango (Ran-regulated importin-beta cargo) - Importin beta complex dissociation; Potency, µM (highest dose often 46.1 µM), inactives show at the highest dose activity change, negative = inhibition; 340,000 tested, 0.071% active; Snurportin-1 (Homo sapiens) + GTP-binding nuclear protein Ran (Homo sapiens) + Importin …; Biochemical FRET Rango-importin beta, RanGTP-induced dissociation; active means falling FRET ratio curve, often poorly fitted, with flat reads before Ran was added; inconclusive means other falling curves, or compound fluorescence or quenching; inactive means flat or rising ratio curve;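 further: potency means the concentration at half of the fitted maximal effect; % of control where 0% means no effect; nearly all actives have a fitted effect of over 45% in size; -100% = wells without RanGTP and RCC1; the record marks most hits as doubtful in a second field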
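Rango (0.1 uM)–importin beta (0.25 uM) complex; RanGTP-RCC1 trigger; 45 min RT; CFP/YFP FRET read.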
Rango-impB inh: qHTS Assay for Inhibitors of Rango (Ran-regulated importin-beta cargo) - Importin beta complex formation. Rango CFP/YFP FRET sensor + importin beta, 45 min. Potency, µM (series often up to 92.2 µM), without a hit: at the top dose inhibition of complex formation. 340,000 tested, 0.031% active; active = rising FRET ratio curve, often small or poorly fitted; inconclusive = mostly compound fluorescence or quenching in the first reads; inactive = flat curves in all reads;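 further: potency means the concentration at half of the fitted maximal effect; 0% = DMSO wells and 100% = buffer wells lacking importin beta; nearly all actives have a fitted effect of over 15% in size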
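FRET biosensor Rango (snurportin 1 IBB between N-terminal EYFP and C-terminal Cerulean), 50 nM in PBS/1 mM DTT/0.02% Tween-20/0.1% BSA, preincubated 5 min RT with compound; 0.125 microM importin beta added, 45 min RT, CFP/YFP FRET ratio read.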
miR-21 reporter: qHTS Assay for Modulators of miRNAs and/orActivators of miR-21; HeLa miR-21 FLuc reporter, luciferase, 48 h; 340,000 tested, under 10 active; Potency, µM (titrated, usually from 38.3 µM), without a hit: at the top dose reporter change, positive = more light; active = well fitted rising curve with a large enough effect; inconclusive = small, poorly fitted or top-dose-only effect; inactive = no such curve, though single readings can be large or run the other way;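 further: % of control where 0% means no effect; miR-21 action dims this reporter so a rising signal means less miR-21 action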
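HeLa cells stably expressing CMV-driven firefly luciferase with a downstream miR-21 binding sequence, endogenously expressing miR-21, were treated with titrations (up to about 40uM final) for 48 hours at 37 degree Celsius. Luciferase luminescence was read after lysis.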
* marks the source's active call; other numbers are inactive results; ? = inconclusive; . = no result given; & = joins results of further samples. The list is partial; the hit share may differ from the screen's.

SMILES	GLA inh pH 4.5	Rango dissoc inh	Rango-impB inh	miR-21 reporter
O=C(C[C@H]1C/C=C\C[C@@H](NC(=O)OCC2c3ccccc3-c3ccccc32)C(=O)O[C@@H](c2ccccc2)CNC1=O)N[C@H](CO)Cc1ccccc1	.	11%	-0.1%	.
C=C[C@@H]1c2cccc(C)c2N(S(=O)(=O)c2ccc(C)cc2)[C@H](c2ccc(OC(C)=O)cc2)C1(C#N)C#N	.	18%	?	.
N#CCCN1CCN(C(=O)c2c(N)no[n+]2[O-])CC1	5	0%	-0.8%	0%
CCOC(=O)Nc1sc2c(c1C(N)=O)CCC(C)C2 (configuration not stated)	-4	-5%	-0.8%	3%
O=C(O)c1ccc(/C=N/N2CCN(Cc3ccccc3)CC2)cc1	0	23%	0.9%	-2%
CS(=O)(=O)N(CCc1ccccc1)CC(=O)N1CCCCC1	12	9%	0.1%	-2%
Fc1ccc(C2=Nn3c(nnc3-c3ccco3)SC2)cc1	-19	-2%	-3.6%	-5%
Cc1cc(C)c(S(=O)(=O)Nc2ccccc2-c2ccccc2)c(C)c1	-13	-12%	-0.6%	10%
O=C(Nc1cc2c(cc1Cl)OCCCO2)c1ccco1	-3	-7%	4.7%	-81%
Cc1ccc(N=C/C(C(=O)C(F)(F)F)=C(\O)c2ccco2)cc1Cl	-3	?	?	-53%
CCc1ccc(CNC(=O)CCCn2nc(C)n3ccnc3c2=O)cc1	.	-14%	-1.4%	-1%
Cc1occc1-c1nnc(SCC(=O)NC2CCCC2)n1C	.	25%	-0.8%	0%
O=S(=O)(/N=C(/Nc1ccc(Cl)cc1Cl)c1ccccc1)c1cccs1	4	12%	-6.7%	-37%
Cc1c(Br)c([N+](=O)[O-])nn1CCCC(=O)Nc1c(C)n(C)n(-c2ccccc2)c1=O	0	20%	-0.3%	6%
S=C(NCc1ccccc1)Nc1nccs1	.	4%	-1.0%	-10%
COc1ccc(CNC(=O)COC(=O)C2CC3C=CC2C3)cc1 (configuration not stated)	3	27%	-1.3%	0%
Cc1ccc(NC(=O)C2CCN(c3cnccn3)CC2)cc1C	6	1%	-2.2%	-6%
O=C(NCCC1=CCCCC1)C1CCN(S(=O)(=O)c2cccc3nonc23)CC1	2	-4%	-1.2%	-1%
COc1ccc(N2CC(NC(=O)NCC(C)C)CC2=O)cc1 (configuration not stated)	10	5%	-5.6%	0%
CCCCC(=O)Nc1nc2ccc3nc(C)sc3c2s1	4	-15%	-1.0%	-18%
Cc1onc(-c2ccccc2Cl)c1C(=O)N1CCCCC1C (configuration not stated)	.	9%	0.6%	4%
CC(=O)CCc1ccc(OCC(O)CNC2CCCc3ccccc32)cc1 (configuration not stated)	0	1%	3.9%	-4%
Cc1ccc(OCc2nc(-c3cccnc3)no2)cc1C	.	5%	0.1%	-39%
O=C(COc1ccccc1)N/N=C/c1ccc([N+](=O)[O-])o1	-5	?	?	?
COc1ccc(OC)c(/C=N/NC(=O)c2cccc3ccccc23)c1	.	-27%	?	.
Cc1cc(C)n2nc(C(=O)OCC(=O)N3CC(C)CC(C)C3)nc2n1 (configuration not stated)	.	-16%	-2.5%	.
COc1cc(/C=C2\C(=O)ON=C2c2ccc(Cl)cc2)ccc1O	.	2%	0.1%	.
O=C(NCc1ccccn1)c1ccc(Cl)c(S(=O)(=O)Nc2ccccc2C(=O)NCc2ccccn2)c1	-2	6%	-0.7%	-9%
S=C(NN=Cc1ccc2c(c1)OCO2)NN=Cc1ccc2c(c1)OCO2	.	0%	-2.1%	.
Cc1c(OCC(=O)NCCCN2CCOCC2)ccc2c3c(c(=O)oc12)CCCC3	.	3%	-0.1%	-4%
CCCCn1c(N)c(N(CC(C)C)C(=O)COc2cc(C)ccc2Cl)c(=O)[nH]c1=O	.	17%	-3.4%	.
CCCOc1ccc(/C=C/C(=O)NC2CCCCC2)cc1	.	-5%	2.2%	-6%
C/C=C\C=C/C(=O)Nc1cccc(C2=NOC3(C2)C[C@H](C(N)=O)N(C(=O)Cc2ccc([N+](=O)[O-])cc2)C3)c1 (some centres not stated)	-1	-2%	?	-2%
CC(=O)c1cccc(NC(=O)c2c(F)c(F)c(F)c(F)c2F)c1	2	6%	2.4%	-2%
Cc1ccc(NC(=O)c2ccc(Cl)c(N3C(=O)C=CC3=O)c2)cc1	2	3%	-2.5%	16%
CCC(c1nnc(SCC(=O)Nc2nnc(-c3ccccc3)o2)n1Cc1ccccc1)N(C)C (configuration not stated)	4	2%	-2.6%	-3%
CC1=C(C(=O)OCc2ccc3c(c2)OCO3)C(c2ccc(F)cc2)NC(=O)N1 (configuration not stated)	3	6%	2.0%	?
Cc1ccc(-c2nnc(Nc3ccc4c(c3)OCO4)c3ccccc23)cc1S(N)(=O)=O	3	-2%	-2.5%	17%
O=C(O)c1ccc(Nc2cc(Cl)c3nonc3c2[N+](=O)[O-])cc1	-7	-5%	0.8%	-2%
CCN(CC)c1ccc(/C=N/NC(=O)Cc2ccc(OC)c(OC)c2)cc1	3	21%	0.8%	-10%
S=C(NCCN1CCOCC1)Nc1cccc2ccccc12	3	8%	-3.7%	-21%
COc1ccc(-n2c(CNc3ccc(C)cc3)nnc2SCC(=O)Nc2nc(-c3ccccc3)cs2)cc1	12	16%	-2.7%	1%
O=C(O)CCCC(=O)N1CC(=O)Nc2ccccc21	-6	-10%	-0.9%	1%
Cc1ccccc1S(=O)(=O)Cc1ccc(C(=O)NCCCN2CCCC2)o1	.	23%	-3.3%	0%
CCS(=O)(=O)N1CCN(c2ccccc2F)CC1	-1	0%	0.9%	1%
COC(=O)CC(N)c1ccc(Br)cc1 (configuration not stated)	1	-6%	1.6%	0%
O=C(CNC(=O)/C(=C/c1ccccc1)NC(=O)c1ccc(Br)cc1)OCc1ccccc1	3	6%	-0.8%	0%
O=C(N1CCOCC1)N1CCCN(C(=O)N2CCOCC2)CC1	-11	12%	0.5%	-4%
Cc1cccc(-c2cc3nc(C)c(C)c(NCCCn4ccnc4)n3n2)c1	2	-1%	0.0%	5%
COc1cccc(N2CC(NS(=O)(=O)c3cccnc3)CC2=O)c1 (configuration not stated)	.	0%	0.4%	.

The list continues:
SMILES	GLA inh pH 4.5	Rango dissoc inh	Rango-impB inh	miR-21 reporter
O=C(CNS(=O)(=O)c1c(Cl)cccc1Cl)OCC(=O)N1CCN(c2ccccc2)CC1	8	-10%	2.5%	0%
O=C(CSCc1c(F)cccc1Cl)NNC(=S)NC1CCCCC1	.	0%	-0.1%	-5%
CCC1CCCCN1C(=O)c1ccc(OC)c(OC2CCN(C(C)C)CC2)c1 (configuration not stated)	.	1%	0.0%	1%
CCOC(=O)C(CCCOc1ccc(C(C)CC)cc1)C(=O)OCC (configuration not stated)	-1	1%	3.8%	5%
CC(OC(=O)c1cccc(NS(C)(=O)=O)c1)C(=O)Nc1ccc2c(c1)OCO2 (configuration not stated)	.	-12%	-0.9%	.
O=c1nc(N2CCOCC2)ccn1-c1nc(-c2ccccc2)sc1-c1ccccc1	-5	-3%	-1.3%	-1%
CCc1noc(C)c1C(=O)N1CCN(S(=O)(=O)c2ccc(Br)cc2)CC1	.	6%	-2.3%	.
CSS(=O)(=O)c1cccc2cccnc12	3	12%	-0.2%	17%
CN(C)CC(C)(C)CNS(=O)(=O)c1ccc(Cl)cc1	6	1%	-2.8%	0%
CC(C)(C)c1ccc(S(=O)(=O)N2CC(C(=O)O)Oc3ccc(Cl)cc32)cc1 (configuration not stated)	.	1%	-2.3%	-1%

Random excerpt: seven compounds from above.
SMILES	GLA inh pH 4.5	Rango dissoc inh	Rango-impB inh	miR-21 reporter
COc1cc(/C=C2\C(=O)ON=C2c2ccc(Cl)cc2)ccc1O	.	2%	0.1%	.
Cc1ccc(NC(=O)C2CCN(c3cnccn3)CC2)cc1C	6	1%	-2.2%	-6%
O=S(=O)(/N=C(/Nc1ccc(Cl)cc1Cl)c1ccccc1)c1cccs1	4	12%	-6.7%	-37%
CCCCC(=O)Nc1nc2ccc3nc(C)sc3c2s1	4	-15%	-1.0%	-18%
CCN(CC)c1ccc(/C=N/NC(=O)Cc2ccc(OC)c(OC)c2)cc1	3	21%	0.8%	-10%
COc1ccc(N2CC(NC(=O)NCC(C)C)CC2=O)cc1 (configuration not stated)	10	5%	-5.6%	0%
Cc1ccc(NC(=O)c2ccc(Cl)c(N3C(=O)C=CC3=O)c2)cc1	2	3%	-2.5%	16%

Following part:
SMILES	GLA inh pH 4.5	Rango dissoc inh	Rango-impB inh	miR-21 reporter
COc1cc(C(=O)OCC#N)ccc1OCc1c(C)noc1C	5	-8%	1.3%	22%
CC1(C)Oc2ccc3ccc(=O)oc3c2/C(=C/NNC(N)=O)C1=O	.	-3%	-2.1%	-19%
CCOCCCNC(=O)c1ccc2c(=O)n(Cc3ccc(OC)cc3)c(=O)[nH]c2c1	10	12%	0.3%	2%
CC(C)OCCCNC(=O)c1ccc(CS(=O)(=O)c2cccc(C(F)(F)F)c2)o1	.	13%	4.5%	-2%
O=[N+]([O-])c1ccc(OCCn2cncn2)cc1	.	-14%	0.1%	-3%
Cc1ccc(C2=NOC(C)(c3nnc(-c4ccccc4)o3)C2)cc1 (configuration not stated)	.	-12%	-0.6%	.
CC(C)C(=O)Nc1nnc(S(=O)(=O)N2CCc3ccccc32)s1	.	18%	-1.2%	-4%&-2%
Cc1cccc(NC(=O)Nc2cccc(Oc3c(F)c(F)c(F)c(F)c3F)c2)c1	-1	-2%	-0.2%	29%
CSC1=NC(C)(C)C=C(/C=C/c2ccc(Cl)cc2)N1	6	-17%	0.1%	17%
CCOc1ccccc1OCCOCCOc1c(Cl)cccc1Cl	-10	2%	2.2%	-11%
CCN(C(=O)CSc1ncccn1)C1CCS(=O)(=O)C1 (configuration not stated)	.	-7%	1.7%	-2%
Cc1ccc(S(=O)(=O)CCC(=O)OC(C)C(=O)NC2CCCCC2C)cc1 (configuration not stated)	.	3%	-3.4%	.
Cc1cc(Oc2ccc(Cl)cc2)nc(-c2ccccc2O)n1	-6	5%	1.8%	-3%
O=C(NC1CCCCC1)C(=S)NCCc1ccccc1	-1	2%	0.9%	3%
Cc1cccc(OCc2nnc(SCC(=O)O)n2-c2ccccc2)c1	.	3%	-3.3%	1%
CCOC(=O)c1c(S(=O)(=O)N2c3ccccc3CC2C)c(C)n(C)c1C (configuration not stated)	.	-2%	5.3%	-5%
NS(=O)(=O)c1ccc(CCNC(=O)c2cnc(Cl)c(Cl)c2)cc1	.	-5%	3.4%	0%
CC(C)[C@H](NC(=O)N1CC(=O)Nc2ccccc21)C(=O)N[C@H](C(=O)O)c1ccccc1	.	10%	?	2%
O=C(CSc1nnnn1-c1cccc2c1CCCC2)N1CCCCC1	-2	-3%	3.1%	-6%
CC(C)Cc1nnc(NC(=O)CCC(=O)NC2CC2)s1	.	8%	-2.9%	2%
COc1ccc(NC(=S)N(CCc2c(C)[nH]c3ccc(C)cc23)Cc2cccnc2)cc1	-17	-8%	-4.0%	4%
O=Nc1c(O)c2ccccc2c2ccccc12	.	1%	7.8%	.
C/C(=N\NC(=O)CCc1c[nH]c2ccccc12)c1ccc([N+](=O)[O-])cc1	-13	-6%	-3.0%	-3%
CCOc1ccc(OCC)c(NC(=O)CSCCc2ccccn2)c1	2	0%	-2.4%	2%
CNC(=O)c1cc2c(s1)CCCCCC2	-3	2%	1.2%	-19%
CCN(Cc1ccccc1)S(=O)(=O)c1ccc(OC)cc1	.	26%	5.0%	3%
COC(=O)c1ccc(Nc2ccc3nonc3c2[N+](=O)[O-])cc1	.	25%	0.5%	-2%
CCOC(=O)c1ccc(NC(=O)CCc2c(C)nc3ncnn3c2C)cc1	1	7%	-0.1%	-15%
CCCc1nnc(NC(=O)CN2C(=O)C3C4C=CC(C4)C3C2=O)s1 (configuration not stated)	4	1%	1.2%	0%
CCOc1ccccc1N1CCN(C(=O)NC(C)c2ccc(F)c(F)c2)CC1 (configuration not stated)	.	-7%	-0.2%	3%
